SmPrx2 inh = blocks S. mansoni peroxiredoxin 2 enzymatic activity; Potency, µM; 65,000 compounds, 0.07% hits; S. mansoni Prx2 activity coupled to TGR/GSH (TGR is thioredoxin glutathione reductase), NADPH fluorescence loss, qHTS; some inactives read as strong as hits; active means full or partial inhibition curve with a strong effect at the top dose; inconclusive means weaker partial or single-point curve; inactive means no accepted curve; further: series up to 57 µM; many of its hits are not listed in these tables
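Coupled assay in which S. mansoni TGR passes NADPH reducing equivalents via glutathione to Prx2, which reduces H2O2. Compounds were preincubated 15 min at room temperature with 25 nM TGR/50 nM Prx2 mix. Kinetic NADPH fluorescence loss (ex 365/em 450 nm) was monitored.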
LT uptake inh = anthrax lethal toxin internalization inhibition; Cells, anthrax lethal toxin internalization, FRET ratio (460/530); Potency, µM (doses to about 40 µM), for the others: at the top dose activity change, negative = inhibition, hits mostly inhibitors; 70,000 compounds, 0.67% hits; active = well fitted falling ratio curve with the 530 nm signal flat; inconclusive = other ratio curves, or a change in one channel alone; inactive = flat curves in the ratio and both channels; the % refers to the ratio; further: on the % scale 0 is the no-effect control and ±100 the full control effect; nearly all actives have a fitted effect of over 50% in size; tested in ME-180 cells; beta-lactamase reporter
* hit, by the source's call; ? = inconclusive; nt = no result given; & = joins results of further samples; [ ] = another dose, or the depositor's remark. Potency means the concentration at half of the fitted maximal effect.

Preview, 4 compounds:
Results follow in this order: SmPrx2 inh, LT uptake inh
CCOc1ccc(-n2c(=O)[nH]cc(C(=O)N3CCCc4ccccc43)c2=O)cc1
  >57, ?
CCCCC(=O)Nc1ccc(NC(=O)c2cc(OC)c(OC)c(OC)c2)cn1
  >57, ?
Cc1ccccc1N(C(=O)CCC(=O)Nc1ccccn1)C(C(=O)NC(C)C)c1ccc(O)cc1 (centres undefined)
  >57, 9.4%
COc1ccc(Cn2c(C3CC3)nc3ccc(NC(=O)C4CC4)cc3c2=O)cc1
  >57, -9.2%

Results, repeating the preview:
Results follow in this order: SmPrx2 inh, LT uptake inh
CCOc1ccc(-n2c(=O)[nH]cc(C(=O)N3CCCc4ccccc43)c2=O)cc1
  >57, ?
CCCCC(=O)Nc1ccc(NC(=O)c2cc(OC)c(OC)c(OC)c2)cn1
  >57, ?
Cc1ccccc1N(C(=O)CCC(=O)Nc1ccccn1)C(C(=O)NC(C)C)c1ccc(O)cc1 (centres undefined)
  >57, 9.4%
COc1ccc(Cn2c(C3CC3)nc3ccc(NC(=O)C4CC4)cc3c2=O)cc1
  >57, -9.2%
CN1CCN(c2nc(NCCOC34CC5CC(CC(C5)C3)C4)nc(OCC(F)(F)F)n2)CC1
  >57, ?
CC(=O)NC(CCS(C)(=O)=O)C(=O)Nc1ccc(Oc2ccccc2)cc1 (centres undefined)
  >57, -7.5%
COc1ccc(OCCN(C)Cc2ccccc2)cc1
  >57, -5.0%
CC(C)CNC(=O)c1cccc(Cn2cc(Cl)cn2)c1
  >57, 0.5%
O=C(O)CCN1C(=O)c2ccncc2C1=O
  >57, 2.4%
CN(C)c1ncc2nc(-c3ccc(F)cc3)c(=O)n(CCc3ccccc3)c2n1
  >57, ?
Nc1nccc(Nc2ccc(S(N)(=O)=O)cc2)n1
  >57, 6.6%[8 µM]
CN1c2ccccc2C(C)(C)C12C=Cc1cc(O)ccc1O2 (centres undefined)
  >57, ?
COc1ccc(NC(=O)C2C(=O)N(CCO)C3(C)CC2c2ccccc2O3)cc1 (centres undefined)
  >57, -0.4%
CN(C)CN1C(=O)S/C(=C2/C(=O)N(CN(C)C)c3ccccc32)C1=O
  >57, -15.7%[8 µM]
c1cncc(C2CCCCN2Cc2ccc3c(c2)OCO3)c1 (centres undefined)
  >57, -7.0%
O=C(O)C1CSC(c2ccncc2)N1 (centres undefined)
  >57, 2.2%
CCC/C=C(\CCC)C(NC(=O)OCC(C)C)c1ccccc1 (centres undefined)
  >57, 1.5%
N=c1n(CCN2CCCCC2)c2ccccc2n1CC(O)c1cccc(Br)c1 (centres undefined)
  >57, -2.2%
Cc1nn(C)c(C)c1S(=O)(=O)N(CC(=O)NCc1ccco1)c1ccc(C(C)C)cc1
  >57, -0.5%
c1ccc(-c2nc3ccccc3c3nncn23)cc1
  >57, -15.9%
CCCN1CCc2cccc3c2[C@@H]1Cc1ccc(O)c(O)c1-3
  >57, -3.0%
CCN1CCN(c2nc3sc4c(c3c3ncnn23)CC(C)CC4)CC1 (centres undefined)
  >57, -9.0%
C[C@](N)(Cc1ccc(O)c(O)c1)C(=O)O
  >11.4, ?
COCC(=O)OCn1nnc2ccccc2c1=O
  >57, -4.6%
CCN1C(=O)[C@H]2[C@H]3[C@H](O)[C@H](O)C/C(=N/OC)[C@@H]3CC[C@@H]2C1=O
  nt, -19.1%[8 µM]
Cc1cc(C(=O)OCC(=O)NC(=O)NC(C)(C)C)c(C)o1
  >57, -1.1%
CCOc1cccc(C2C(C#N)=C(N)Oc3cc(C)n(Cc4ccccn4)c(=O)c32)c1OCC (centres undefined)
  >57, ?
CCOc1ccc2nc(SCC(=O)NCc3ccco3)sc2c1
  >57, ?
COc1ccc(OCC(=O)OCCN2C(=O)c3ccccc3C2=O)cc1
  >57, -3.2%
CCC(C)(C)n1nnnc1C(CC(C)C)N1CCC(C(N)=O)CC1 (centres undefined)
  >57, -6.1%
O=C(NCC1CCCO1)C1CCN(S(=O)(=O)c2cccnc2)CC1 (centres undefined)
  >57, -4.8%
CCc1ccccc1N1CC23C=CC(O2)C(C(=O)O)C3C1=O (centres undefined)
  >57, -3.6%
CCOC(=O)c1c(C)n(C)c2ccc(OCC(O)Cn3nc(C)c(Br)c3C)cc12 (centres undefined)
  >57, 10µM*
COc1ccc(C2Sc3nncn3N2Cc2ccc(C#N)cc2)cc1 (centres undefined)
  >57, -2.9%
CN(C)c1ccc(P(=O)(OC2CCCCC2)C(O)c2cccnc2)cc1 (centres undefined)
  >57, -11.8%
O=C(NC1CCN(C(=O)NC2CCCCC2)CC1)c1ccco1
  >57, -8.5%
CC1=CC=CC2=NC(=O)CC(C)(C(=O)N(CC(=O)NC(C)C)C3CCCC3)N12 (centres undefined)
  >57, 2.4%
COc1ccccc1CNC(=O)C1CCN(c2nc3ccccc3o2)CC1
  >57, 0.0%
CCCn1c(SCC(=O)Nc2nnc(-c3ccccc3)s2)nnc1-c1ccccn1
  >57, 1.2%
CCc1ccccc1NC(=O)c1cnccn1
  >57, 9.2%
Cc1onc(-c2ccccc2)c1C(=O)Nc1ccnn1C1CCCCC1
  >57, 15.5%
Cc1nnc2ccc(Oc3ccc(-c4ccccc4)cc3)nn12
  >57, -12.5%
N#Cc1cccc(NC(=O)COc2ccc(-n3ccnc3)cc2)c1
  >57, 0.2%
CC(C)NC(=O)N1CC[C@@]2(CCCN(C(=O)c3cc(C(F)(F)F)cc(C(F)(F)F)c3)C2)C1
  >57, 5.9%
Cn1cnc(CCN)c1
  >57, 9.2%
CC(=O)N1CCN(C(=O)CNc2cc(C(F)(F)F)ccc2OCC(F)(F)F)CC1
  >57, 15.7%
O=C(O)C1CCCCC1C(=O)NCCc1ccccc1 (centres undefined)
  >57, 3.4%
CCOc1cc(C(=O)OCC(=O)c2c(C)[nH]c3ccccc23)ccc1OCC(=O)N1CCOCC1
  >57, -5.9%
O=C(O)Cn1ccnc1
  >57, 2.8%
CC(=O)C1=C(O)C=C2Oc3c(C(C)=O)c(O)c(C)c(O)c3[C@]2(C)C1=O
  >57, ?

(more compounds)
Results follow in this order: SmPrx2 inh, LT uptake inh
COC(=O)COc1ccc(S(=O)(=O)Nc2cc(OC)ccc2OC)cc1
  >57, 20.4%
N#Cc1cc(-c2ccccc2)nn1-c1ccccc1
  >57, ?
N#Cc1c(-c2ccco2)nc(SCC(=O)Nc2cccc(Cl)c2)[nH]c1=O
  >57, -0.1%
CC1CCN(S(=O)(=O)N2CCC(C(=O)N3CCC(N(C)CC4CCCO4)CC3)CC2)CC1 (centres undefined)
  >57, 4.4%
CCOC(=O)Cn1c(CN2CC(C)OC(C)C2)nc2c1c(=O)n(C)c(=O)n2C (centres undefined)
  >57, ?
CCC(=Nc1ccc(OC)cc1OC)c1c(O)n(C2CCCCC2)c(=O)[nH]c1=O
  >57, nt
CCOC(=O)CN1C(=O)C(O)=C(C(C)=O)C1c1ccc(F)cc1 (centres undefined)
  >57, -23.1%
CCn1c(SCC(N)=O)nnc1-c1ccc(OC)c(OC)c1
  >57, 2.2%
CCn1cc(C(=O)NCc2cccs2)c(=O)c2cc(S(=O)(=O)N3CCOCC3)ccc21
  >57, 4.4%
CCOC(=O)N1CCN(S(=O)(=O)c2ccc3c(c2)CCN3C(=O)CC)CC1
  >57, 5.2%
O=c1c2c3nc4ccccc4nc3n(Cc3ccccc3)c2ncn1Cc1ccco1
  nt, ?
CCOC(=O)c1sc(NC(=O)CSc2nnc(C(C)C)n2CC)nc1C
  >57, -3.7%
CCCNC(=O)C1CC(=O)N(c2ccc(OCC(=O)Nc3cccc(C)c3C)cc2)C1 (centres undefined)
  >57, -1.9%
CCOc1cc(S(=O)(=O)n2cc(-c3ccc(F)cc3)c(N)n2)cc(OCC)c1OCC
  >57, -10.8%
CCOC(=O)Cn1c(C)cc(=O)c2cccc(C)c21
  nt, -6.6%
O=S(=O)(c1cccc2c(Cl)cccc12)N1CCCNCC1
  >57&>57, ?
CCOc1ccc(CCNC(=O)Cc2nn[nH]n2)cc1OCC
  >57, ?
Cn1c2c(c3ccccc31)CCSC2=O
  >57, -11.4%
COC(=O)c1c(C)oc2cc(Br)c(OCC(=O)C(C)(C)C)cc12
  >57, -5.3%
O=C(O)CNC(=O)c1ccc(CO)o1
  nt, -8.6%
O=C(CN1C(=O)c2ccccc2C1=O)N1CCCCC1
  >57, 10.9%
COc1cccc(N2CCN(CC(=O)NCc3cccs3)CC2)c1
  >57, 5.9%
CC1CC(=O)C2=C(C1)OC(N)=C(C#N)C2c1coc2ccccc2c1=O (centres undefined)
  nt, 21.3%
CSCCC(NS(=O)(=O)/C=C/c1ccccc1)C(=O)N1CCC(C)CC1 (centres undefined)
  >57, -1.0%
O=C(CSc1nc2c(c(=O)n1-c1ccccc1)SCC2)N1CCN(c2ccccc2)CC1
  >57, 23.6%
CCOC(=O)N1CCN(C(=O)c2n[nH]c(=O)c3ccccc23)CC1
  >57, 4.5%
CC(=O)NC1CC(C)(C)N(OC(C)=O)C(C)(C)C1
  >57, 8.9%
CCOC(=O)c1[nH]cnc1C(=O)Nc1cccc(N)n1
  >57, 10.2%
Cc1ccc(NC(=O)Cn2nnc(C(=O)NCc3ccccc3)c2N)cc1C
  >57, 8.7%
COCCNc1nnc(SCC(=O)c2ccc3c(c2)OCO3)s1
  >57, -4.9%
N#Cc1cn(CC(=O)NCc2cccnc2)c2ccccc12
  >57, -2.7%
Cn1nc(C(C)(C)C)cc1C(=O)NCc1ccc(N2CCCC2=O)cc1
  >57, -3.6%
CC1Cc2ccccc2N1C(=O)C1CCCN1S(=O)(=O)c1ccc(Cl)cc1 (centres undefined)
  >57, 9.5%
COc1ccc(NC(=O)CSc2nnc(-c3ccccn3)n2N)c(OC)c1
  >57, -22.9%
COCCCNC(=O)C1CCN(S(=O)(=O)N(CC(C)C)CC(C)C)CC1
  >57, 4.7%
COC(=O)CNC(=O)c1ccc(=O)oc1
  >57, 3.8%
O=C(c1ccccc1/S(=N/S(=O)(=O)c1ccccc1)N1CCOCC1)N1CCOCC1 (centres undefined)
  >57, 7.8%
Cc1cc(C(=O)Cn2nnc3ccccc3c2=O)c(C)n1-c1c(C)n(C)n(-c2ccccc2)c1=O
  >57, -5.4%
CN1C(=O)C(Cc2ccc3c(c2)OCO3)C(=O)N(C)C1=O
  nt, -12.8%
O=C(CN1C(=O)c2ccccc2S1(=O)=O)N1CCN(c2ccccc2)CC1
  >57, 5.5%
CCOc1ccc(-c2nnc(SCC(=O)N3CCN(c4ccccc4)CC3)o2)cc1
  >57, 0.5%
CCC(=O)N1CCc2cc(S(=O)(=O)NC(C(=O)Nc3cccc(C)n3)C(C)C)ccc21 (centres undefined)
  >57, 5.6%
NC(=O)c1ccccc1NC(=O)c1ccccc1F
  >57, 14.1%
CC(C)c1c(CN(C)[C@@H](C)Cc2ccccc2)n(C)n(-c2ccccc2)c1=O
  >57, 2.1%[3.58 µM]
CC(C)Oc1ccc(C(=O)N2CCCc3ccccc32)cc1
  nt, ?
O=C(O)CCCC(=O)N(Cc1ccccc1)Cc1ccccc1
  >57, 0.7%
O=c1[nH]c(=S)[nH]nc1Cc1ccccc1
  >57, nt
COc1ccc(OC)c(C(=O)Cn2nnc3ccccc3c2=O)c1
  >57, 6.8%
C=CCOC(=O)C1=C(C)NC2(O)c3ccccc3C(=O)C12O (centres undefined)
  >57, -5.1%
CC1(C)CC(=O)N(CC(=O)O)c2ccccc2S1
  >57, -13.4%

Next entries follow:
Results follow in this order: SmPrx2 inh, LT uptake inh
O=C(c1ccco1)N1CCN(c2nc(C(F)(F)F)nc3c2nnn3Cc2ccccc2)CC1
  >57, ?
Cn1c(NCc2ccccc2Cl)nc2ccccc21
  >57, -23.9%
CCNc1nc(SCCOc2ccccc2)nc(N(C)C)n1
  >57, ?
COc1ccc(CNc2cc(C)ccc2C)c(OC)c1OC
  >57, -6.8%
CCCn1c(=O)c2[nH]c(-c3ccc(S(=O)(=O)O)cc3)nc2n(CCC)c1=O
  >57, -3.0%
O=c1[nH]c2cc3c(cc2cc1C(c1nnnn1C1CCCCC1)N1CCSCC1)OCCO3 (centres undefined)
  >57, -27.7%
CCC(C)NC(=O)C1(C)CCC(=O)N1Cc1ccccc1OC (centres undefined)
  >57, -9.8%
CCN1C(C)=C(C(=O)OC)C(c2ccccc2)N2C(=O)[C@](O)(C(=O)OC)C(c3ccccc3)C(C(=O)c3ccccc3)=C12 (some centres undefined)
  nt, -20.1%[8 µM]
CCOC(=O)C(C)n1cnc2sc3c(c2c1=O)CCC3 (centres undefined)
  >57, 3.8%
O=C(Nc1ccccc1)N1CCCC(c2nc(-c3cccs3)no2)C1 (centres undefined)
  >57, -4.1%
O=C(Nc1ccc2c(c1)OCO2)c1noc2c1CCCCC2
  >57, -20.2%
CCOc1ccc(OCC)c(NC(=O)CCCN2C(=O)c3cccnc3C2=O)c1
  >57, 11.1%
CCCn1c(SC2C(=O)CC(C)(C)CC2=O)nc2c1c(=O)n(C)c(=O)n2C
  >57, -5.6%
Cc1noc(C)c1C(=O)N1CCC2(CCCN(Cc3ccc(C#N)cc3)C2)CC1
  >57, ?
Clc1ccc([C@@H]2C[C@H]3CC[C@@H]2N3)cn1
  >57, -6.4%
COc1cccc(-c2nn(C)c3sc(C(=O)Nc4ccc5c(c4)OCCO5)cc23)c1
  >57, ?

Screening data (PubChem)

The list is partial; the hit share may differ from the screen's.
